Source: PubChem BioAssay (several laboratories)
FGF22 binding – FGF22 (human) thermal shift binding. recombinant FGF22 thermal shift, SYPRO orange fluorescence; percent of sucrose octasulfate shift, DMSO zero. calls only at 9.99 µM. hit rate 1.5% among 340,000;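 active = melting point raised past a set limit in the mean and every replicate; three in four hits are not shown here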
E coli growth – blocks Escherichia coli growth | OD600, 23 h; hits give low values | OD600 absorbance (concentration not given with the values) | hit rate 0.21% among 330,000;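 active = OD600 absorbance below the run mean of sample wells minus 3.6 SD, in any replicate, cut at about 0.56 in these data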;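 also: stock transfer was 300 nL into about 60 µL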
B2AR ag – agonists of human beta-2 adrenergic receptor inducing internalization. hit rate 0.43% among 340,000. P07550. response, % (concentration not given with the values). Am2.2-beta2AR cells, FAP receptor internalization, flow cytometry; reference of the scale not given here;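 active = response above a set limit, near 3 SD of response in nonfluorescent compounds, cut at about 42% in these data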;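 also: stock transfer was 100 nL into about 11 µL; a reference agonist was the positive control; negative values mostly stem from fluorescent compounds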
HNF4A DNA FP – change in binding of human HNF4 alpha to DNA; AID 1224865; hit rate 0.3% among 360,000; HNF4a-FITC DNA binding, fluorescence polarization, 1 h; P41235; activity change, % at 10 µM; in the data active = activity change above about 30%, passing the limit was not always enough;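 also: controls were the assay level and a saturating level of protein; the project sought stronger binding though the title names inhibitors; some compounds called inactive have numbers as strong as hits; positive values seem to mean higher polarization but the record does not say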
UCH37 inh – human UCH37 deubiquitinating enzyme inhibition; Q9Y5K5; purified proteasome/UCH37, Ub-AMC cleavage fluorescence; inhibition, % (concentration not given with the values); hit rate 0.33% among 330,000; AID 588478;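 active = mean of two replicates above 20%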;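 also: 0% = compound-free wells with enzyme and 100% = wells lacking proteasome; stock transfer was 100 nL into about 20 µL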
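Schedule: 30 min plus 25 min, room temperature / Material: human UCH37 within purified proteasomes / Technique: AMC fluorescence intensity at 355/460 nm / Buffer or medium: pH 7.4 Tris-HCl (50 mM) with ovalbumin, ATP-MgCl2, DTT / Controls: wells without proteasome as full block, compound-free enzyme plus substrate as uninhibited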
LANA-H2A inh – blocks KSHV LANA binding to histone H2A/H2B. hit rate 0.6% among 320,000. Q9QR71. cell-free LANA-H2A/H2B peptide, fluorescence polarization. inhibition, % (concentration not given with the values); in the data active = inhibition mostly above about 10%, no sharp cut-off; inactive = mostly below about 6.7%;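 also: stock transfer was 7.5 nL into about 10 µL; 0% = median of vehicle wells and 100% = median of positive control wells; one replicate is shown; the record names a cut of 25% in any replicate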
Target sequence (Q9QR71 whole entry, looked up): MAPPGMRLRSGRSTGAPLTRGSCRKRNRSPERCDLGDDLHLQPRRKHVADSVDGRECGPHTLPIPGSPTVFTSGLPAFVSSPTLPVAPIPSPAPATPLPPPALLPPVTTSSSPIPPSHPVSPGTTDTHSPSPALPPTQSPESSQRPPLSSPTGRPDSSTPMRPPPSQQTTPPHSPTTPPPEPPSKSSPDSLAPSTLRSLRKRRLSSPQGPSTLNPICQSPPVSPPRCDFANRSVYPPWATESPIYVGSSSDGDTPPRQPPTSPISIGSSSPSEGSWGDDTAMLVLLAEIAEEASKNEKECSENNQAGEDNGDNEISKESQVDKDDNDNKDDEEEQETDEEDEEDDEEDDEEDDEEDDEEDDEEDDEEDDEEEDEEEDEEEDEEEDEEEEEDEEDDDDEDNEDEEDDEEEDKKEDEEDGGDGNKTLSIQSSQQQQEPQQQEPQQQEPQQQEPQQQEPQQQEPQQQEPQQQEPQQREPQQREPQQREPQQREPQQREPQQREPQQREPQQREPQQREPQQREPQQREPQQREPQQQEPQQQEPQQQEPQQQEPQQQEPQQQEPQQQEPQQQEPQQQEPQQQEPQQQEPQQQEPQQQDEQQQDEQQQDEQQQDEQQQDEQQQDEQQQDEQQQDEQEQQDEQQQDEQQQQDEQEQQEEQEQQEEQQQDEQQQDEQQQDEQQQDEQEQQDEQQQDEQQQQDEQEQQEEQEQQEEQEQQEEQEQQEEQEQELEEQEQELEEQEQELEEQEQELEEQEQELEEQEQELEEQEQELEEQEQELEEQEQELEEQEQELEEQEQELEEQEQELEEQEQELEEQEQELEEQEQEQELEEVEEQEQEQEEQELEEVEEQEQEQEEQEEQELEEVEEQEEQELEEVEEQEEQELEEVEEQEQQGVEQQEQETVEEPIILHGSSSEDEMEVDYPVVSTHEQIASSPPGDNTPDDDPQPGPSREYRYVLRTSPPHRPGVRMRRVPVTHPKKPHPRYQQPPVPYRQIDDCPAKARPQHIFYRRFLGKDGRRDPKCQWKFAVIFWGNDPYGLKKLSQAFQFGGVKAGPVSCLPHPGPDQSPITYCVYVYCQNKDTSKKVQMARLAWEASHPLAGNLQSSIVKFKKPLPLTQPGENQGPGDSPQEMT
ALR inh – inhibitors of human sulfhydryl oxidase ALR | P55789 | purified ALR, DTT oxidation, H2O2 HRP-luminol luminescence | inhibition, % (no concentration beside the values) | hit rate 3.8% among 290,000 | AID 485317;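 active = mean and each replicate at 75% or more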;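 also: stock transfer was 7.5 nL into about 7.5 µL; 0% = neutral wells and 100% = wells with inactivated enzyme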
Active calls of the source: *; i = inactive; / = no result given. An excerpt; rates above refer to the full screens.

FGF22 binding	E coli growth	B2AR ag	HNF4A DNA FP	UCH37 inh	LANA-H2A inh	ALR inh	Structure
/	0.74	0	-0.2	3.0	-23	-2	COC(=O)Cn1cnc2c(C#N)c3n(c2c1=O)CCCC3
/	0.67	21	-0.9	3.4	0.6	-95	CCOc1cc(CNCCCN2CCOCC2)ccc1OCC(=O)Nc1cccc2ccccc12
/	0.7	-2	-1.3	-0.8	5.9	14	Cc1ccc2nc(SCC(=O)Nc3c(C)n(C)n(-c4ccccc4)c3=O)[nH]c2c1
/	0.76	12	-2.5	6.2	23	-11	Cc1ccc(CNc2ccc(S(=O)(=O)N3CCOCC3)cc2[N+](=O)[O-])cc1
/	0.69	6	-1.4	-0.6	-2.2	37	COc1ccc(C(=O)CSc2nc3ccccc3n2CC(=O)NC(C)(C)C)cc1
/	0.71	1	-2.8	0.8	0.0	9	Cc1c(Cl)cccc1NC(=O)CCCN1C(=O)CCC1=O
/	0.69	7	4.7	0.6	-4.1	-7	O=C(NC(c1ccccc1)c1ccccc1)c1ccc(Br)o1
/	0.7	-4	7.6	5.6	1.5	14	COC(=O)CCSc1nccn1Cc1ccccc1
/	0.73	-2	1.0	i	-5.2	92*	O=C(NCc1cccnc1)c1ccc2c(c1)N(Cc1ccccc1)CCS2
/	0.72	-2	1.1	-7.5	0.8	44	O=C(NN=C1CCN(Cc2ccccc2)CC1)c1ccccc1O

An excerpt from above in order of their number in E coli growth, smallest number first:
| structure | E coli growth |
| --- | --- |
| CCOc1cc(CNCCCN2CCOCC2)ccc1OCC(=O)Nc1cccc2ccccc12 | 0.67 |
| O=C(NC(c1ccccc1)c1ccccc1)c1ccc(Br)o1 | 0.69 |
| O=C(NCc1cccnc1)c1ccc2c(c1)N(Cc1ccccc1)CCS2 | 0.73 |

(list continues)
FGF22 binding	E coli growth	B2AR ag	HNF4A DNA FP	UCH37 inh	LANA-H2A inh	ALR inh	Structure
i	0.69	-2	0.6	-0.4	-3.6	-1	CCCCN(C(=O)c1ccc(S(=O)(=O)N(C)C)cc1)c1ccccc1
i	0.69	15	3.0	1.2	-1.7	-28	Cc1ccc(CNC(=O)Cn2ncn3cccc3c2=O)cc1
i	0.69	-3	2.6	1.7	5.9	-3	O=C(NCc1ccco1)C1CCCN(S(=O)(=O)c2ccc(Br)cc2)C1 (centres undefined)
i	0.64	15	5.0	3.1	4.2	-4	CCN(CC)c1ccc(S(=O)(=O)N2CCCCC2)cc1NC(=O)C1CSC2(C)CCC(=O)N12 (centres undefined)
i	0.72	-1	-5.3	-7.7	1.5	99*	Cc1ccc(NC(=O)CSc2ncc3ccccn23)cc1C
i	0.68	0	-4.8	0.2	4.4	-23	O=C(O)c1ccccc1-c1cn2cc(Cl)ccc2n1
i	0.7	11	2.1	-22	/	/	CC[C@@H]1C(c2ccccc2)=NN(c2ccccc2)[C@H]1C(=O)N1CCOC1=O
i	/	-1	0.6	-0.7	-1.5	1	ClCCCc1cn(C[C@H]2CC[C@@H]([C@@H]3CC[C@H](Cn4cc(CCCCl)nn4)O3)O2)nn1
i	0.74	17	0.6	6.4	-2.1	9	COc1ccc(CN/C=C2\CCCCC2=O)cc1
i	0.72	0	-0.7	2.5	6.0	4	Cc1cc(CN(C)C(=O)C2CCC(=O)N(CCc3cccc(F)c3)C2)on1 (centres undefined)
i	0.7	-2	-0.7	8.5	-3.4	17	C=CCOc1ccc(/C=C2\SC(=S)N(N3CCOCC3)C2=O)cc1
/	0.64	/	/	-2.9	-4.4	-6	CC1CC(C)CN(CCCNC(=O)C2CCN(c3ncnc4c3sc3cccc(F)c34)CC2)C1 (centres undefined)
i	0.64	-3	0.4	-0.2	-0.6	-12	O=C(c1cc2ccccc2o1)N1CCN(c2ccccn2)CC1
/	0.66	-6	4.5	4.0	4.2	-4	CCCCN(C(=O)Nc1ccc(Cl)cc1)C1CCN(C(C)=O)CC1
i	0.64	-2	-0.2	-1.4	-1.1	-2	COc1ccc(CC(=O)NCCCc2ccccc2)cc1OC
i	0.72	-3	0.4	-1.4	2.4	-7	COc1cc(OC)cc(C(=O)Nc2nnc(Cc3ccc(OC)c(OC)c3)s2)c1
i	0.69	3	-0.3	-27	-0.4	-3	O=C(O)CCC(=O)Nc1ccc(/C=C/C(=O)C2CC2)cc1
/	0.75	25	1.4	4.1	-3.5	-5	Cc1nc(-c2cccc(NS(=O)(=O)c3ccccc3)c2)cs1
i	0.68	-1	-3.3	-0.5	-6.0	2	O=C(Nc1cccc(Cl)c1)OCc1cn(-c2ccccc2)nn1
i	0.72	0	3.8	0.8	2.5	-10	COc1ccc(OC)c(CCNC(=O)CCc2cn(C)c3ccccc23)c1
i	0.68	20	6.0	-1.4	6.1	-9	O=C(CSc1ccc(-c2ccncc2)nn1)c1ccc(Cl)cc1
/	0.75	4	-0.6	-3.0	3.7	-2	COc1ccc(-c2noc(CCC(=O)N(C)c3cccc(C)c3)n2)cc1
i	0.67	-3	5.9	1.9	-1.8	-6	COC(=O)c1ccccc1NC(=O)C1CCN(c2ncnc3c2nc2n3CCCCC2)CC1
i	0.74	-2	4.2	6.0	-3.0	/	O=C(c1ccc2nc(N3CCOCC3)sc2c1)N1CCC(Cc2ccccc2)CC1
/	/	0	-2.4	4.5	0.7	0	CCOC(=O)/C(C(=O)Nc1ccccc1Br)=C1/NC(C)(C)Cc2ccccc21
/	0.7	1	-7.0	1.6	0.1	-6	COc1ccnc(Oc2ccc(C)cc2C)c1C#N
/	0.65	8	-0.1	-12	-3.3	23	CCOc1cc(/C=C2\SC(=N)N(c3nonc3N)C2=O)ccc1OCC(N)=O
/	0.68	-3	1.3	-0.6	-2.4	-2	CCOC(=O)Cn1ncc2c(=O)oc3ccccc3c21
i	0.66	3	-3.0	-0.1	0.0	/	Cc1ccccc1NC(=O)Cc1nnc(SCC(=O)NC2=NCCS2)n1C
i	0.68	14	7.0	-2.2	-1.9	0	COc1cc2c(cc1OC)C(COc1cccc(C(F)(F)F)c1)NCC2 (centres undefined)
i	0.56	8	1.2	1.0	9.8	-16	CC(Oc1cccnc1[N+](=O)[O-])C(=O)N1CCc2ccccc21 (centres undefined)
i	0.72	0	0.3	0.6	0.3	11	O=C(O)c1nccnc1C(=O)N1CCN(c2ccccc2)CC1
i	0.69	-6	-3.1	1.0	3.2	8	CC(=O)Nc1ccccc1C(=O)C(=O)Nc1cccc(C(=O)NCC2CCCO2)c1 (centres undefined)
/	0.68	5	-0.1	3.3	2.0	2	CCOC(=O)C1=NN(c2cccc(C)c2)C2(S1)SC(C(C)=O)=C(C)N2c1ccccc1 (centres undefined)
i	0.69	9	2.9	-1.0	0.5	-1	O=C(CNc1cc(S(=O)(=O)N2CCOCC2)ccc1N1CCOCC1)Nc1cccc(C(F)(F)F)c1
/	0.72	2	2.5	0.7	2.0	-17	CC(C)[C@H](NC(=O)Nc1cccc(C(F)(F)F)c1)C(=O)O
/	0.66	-1	-1.1	-0.5	5.2	0	Cc1ccc(C(=O)NC2CCS(=O)(=O)C2)cc1S(=O)(=O)N1CCOCC1 (centres undefined)
i	0.71	4	1.0	-40	-7.1	-8	Cc1cc(SCC(=O)Nc2ccc(O)cc2)n2ncc(-c3ccccc3)c2n1
i	0.66	0	-2.4	1.2	/	/	Cc1nn(CC(=O)NC(C)C(C)C)c(C)c1S(=O)(=O)N1CCCCC1 (centres undefined)
i	0.67	-7	0.4	0.3	0.6	3	CCc1ccc(Nc2nnc(SC(C)C(=O)NC3CC3)s2)cc1 (centres undefined)
i	/	-6	-3.4	/	/	/	Nc1ncn(C(=S)Nc2ccccc2)n1
i	0.69	-5	2.1	6.1	-3.5	-3	Nn1c(SCc2ccccc2)nc2c(cnn2-c2ccccc2)c1=O
i	0.7	-4	28	0.9	-0.3	4	CCCCNc1ccc(C(CC(N)=O)NC(=O)Cc2ccc(Br)cc2)cc1[N+](=O)[O-] (centres undefined)
i	0.72	4	-1.9	1.3	-7.6	5	COC(=O)C1=C(C)N(c2ccc(OC)c(OC)c2)C(=O)/C1=C\c1ccco1
i	0.67	22	-0.5	-32	2.8	-13	Cc1ccc(NC(=O)Cn2nc(-c3ccco3)ccc2=O)cc1Cl
i	0.66	-3	-4.1	-44	5.2	3	CCOC(=O)c1sc(=NC(=O)c2cccc(Br)c2)n(C)c1C
i	0.69	-2	-3.1	-17	3.9	-7	COc1ccc(Cn2c(=O)[nH]c3cc(C(=O)N4CCN(c5ccc(C(C)=O)cc5)CC4)ccc3c2=O)cc1
i	0.75	13	-9.0	0.4	3.7	25	CC1CCCCN1CCNC(=O)C1CCN(S(=O)(=O)c2cccc3cccnc23)CC1 (centres undefined)
i	0.37*	-1	-4.3	1.8	2.1	/	O=C(Oc1ccc(Cl)c2cccnc12)c1cccnc1
/	0.64	-5	-3.3	-18	2.2	-17	Cc1ccc(-c2cc(C(F)F)nc(NCc3cccs3)n2)cc1

(list continues)
FGF22 binding	E coli growth	B2AR ag	HNF4A DNA FP	UCH37 inh	LANA-H2A inh	ALR inh	Structure
i	0.65	-7	0.4	1.9	3.3	1	COCC(C)n1c(C)cc(C(=O)COC(=O)c2cccn2C)c1C (centres undefined)
i	0.64	3	1.8	1.6	/	-1	CC(Sc1nnnn1C)C(=O)Nc1cc(S(=O)(=O)N2CCCCC2)ccc1Cl (centres undefined)
/	0.7	-1	1.5	1.8	0.3	36	CCCn1nnnc1SCC(=O)c1ccc2c(c1)OCCO2
/	0.75	-3	-5.3	-36	8.5	-4	COc1cc2cc(CN(Cc3ccc4c(c3)OCO4)C(=O)c3ccco3)c(=O)[nH]c2cc1OC
i	0.67	11	-0.2	4.6	-0.5	/	Cc1cccc(NS(=O)(=O)c2ccc3c(c2)CCN3C(=O)CCC(=O)O)c1
/	0.74	-7	2.0	0.8	0.4	/	Cc1cc(C)n(-c2cc(-n3nc(C)cc3C)ncn2)n1
i	0.75	8	3.8	3.2	-3.3	-50	CCOc1ccc(NC(=O)Nc2ccc3c(c2)N(C)C(=O)CS3)cc1
i	0.75	7	-0.4	-2.9	-3.8	-12	Cc1csc2ncc(C(=O)N3CCCc4ccccc43)c(=O)n12
i	/	6	0.3	/	2.3	-7	Cc1ccc(N(Cc2ccccc2)C(=O)c2ccc(F)c(S(=O)(=O)N3CCOCC3)c2)cc1
/	0.71	9	-4.6	3.2	1.4	2	CC(C)(C)c1ccc(C(=O)Oc2ccc3c(c2)OCC3=O)cc1
i	0.67	-2	4.2	3.8	0.4	-4	O=C(O)COCC(=O)Nc1ccc2c(c1)oc1ccccc12
i	0.71	17	-0.3	3.1	-0.8	0	O=C(OCn1nnc2ccccc2c1=O)c1ccco1
/	0.67	4	-2.8	2.6	-1.8	9	CCNC(=O)NCCc1c[nH]c2ccc(Cl)cc12
i	0.69	3	-1.1	4.5	-0.2	-21	COc1ccc(NC(=O)c2cccc(N3C(=O)C4C5CCC(C5)C4C3=O)c2)cc1 (centres undefined)
/	0.72	0	0.4	0.2	-5.1	98*	CCOC(=O)c1c(N)sc2c(NC(C)=O)cccc12
i	0.69	1	0.4	0.9	5.7	-1	Cc1nc(CS(=O)(=O)c2ccccn2)sc1C(=O)NNC(=O)c1c(F)cccc1Cl

Quoted at random: 3 compounds from above, in no set order.
FGF22 binding	E coli growth	B2AR ag	HNF4A DNA FP	UCH37 inh	LANA-H2A inh	ALR inh	Structure
i	0.71	17	-0.3	3.1	-0.8	0	O=C(OCn1nnc2ccccc2c1=O)c1ccco1
/	0.72	0	0.4	0.2	-5.1	98*	CCOC(=O)c1c(N)sc2c(NC(C)=O)cccc12
i	0.69	3	-1.1	4.5	-0.2	-21	COc1ccc(NC(=O)c2cccc(N3C(=O)C4C5CCC(C5)C4C3=O)c2)cc1 (centres undefined)
